# Source: PubChem BioAssay (National Center for Advancing Translational Sciences (NCATS))
# Lassa entry inh: blocks Lassa virus binding to or entry into cells; Lassa virus pseudotype entry inhibition, cell reporter; control for the full effect not named in the record; Potency, µM (titrated, usually from 37.9 µM), inactives show top-dose activity change, negative = inhibition, hits mostly inhibitors; hit rate 1.2% among 300,000; active means well fitted inhibition curve with a large enough effect; inconclusive means small, poorly fitted or top-dose-only effect, or effect the other way; inactive means flat fitted curve, though single readings scatter; tested in HEK293 cells; also: % is scaled to controls: 0 for no effect and ±100 for the full control effect; nearly all actives have a fitted effect of over 50% in size; luciferase read-out
# SARS PLP yeast: inhibitors of SARS-CoV papain-like protease in yeast; S. cerevisiae expressing SARS-CoV PLpro, growth rescue; control for the full effect not named in the record; Potency, µM (highest dose often 32.9 µM), inactives show top-dose activity, positive = growth rescue; hit rate 0.19% among 330,000; also: 0% is about no effect; nearly all actives have a fitted effect of over 55% in size; growth read by luminescence after 48 h
# Marburg entry inh: blocks Marburg virus binding to or entry into cells | Potency, µM (series often up to 37.8 µM), inactives show at the top dose activity change, negative = inhibition, usual class: inhibitors | Marburg virus pseudotyped entry inhibition, cell reporter; control for the full effect not named in the record; about a third of the inactives were read at about 46 µM | hit rate 1.8% among 300,000; active = well fitted inhibition curve with a large enough effect; inconclusive = small, poorly fitted or top-dose-only effect, or effect the other way; inactive = flat fitted curve, though single readings scatter; tested in HEK293 cells; about a fifth of its hits are not listed in these tables; also: % is scaled to controls: 0 for no effect and ±100 for the full control effect; luciferase read-out
# Cruzain Triton: blocks cruzain activity in presence of Triton detergent | purified cruzain, Z-FR-AMC fluorescence, 0.01% Triton | hit rate 0.43% among 200,000 | AID 1478 | P25779 | Potency, µM, without a hit: max response, negative = inhibition, usual class: inhibitors; active = well fitted curve in the direction sought with a large enough effect; inconclusive = small, poorly fitted or top-dose-only effect, or another doubt; inactive = no such curve, though single readings can be large; an effect the other way counts as inactive or inconclusive;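 also: plate controls were neutral wells for no effect and buffer without enzyme for full effect; nearly all actives have a fitted effect of over 40% in size; top concentration of the series not given in the record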
# Target sequence (P25779 123-467 limits assumed): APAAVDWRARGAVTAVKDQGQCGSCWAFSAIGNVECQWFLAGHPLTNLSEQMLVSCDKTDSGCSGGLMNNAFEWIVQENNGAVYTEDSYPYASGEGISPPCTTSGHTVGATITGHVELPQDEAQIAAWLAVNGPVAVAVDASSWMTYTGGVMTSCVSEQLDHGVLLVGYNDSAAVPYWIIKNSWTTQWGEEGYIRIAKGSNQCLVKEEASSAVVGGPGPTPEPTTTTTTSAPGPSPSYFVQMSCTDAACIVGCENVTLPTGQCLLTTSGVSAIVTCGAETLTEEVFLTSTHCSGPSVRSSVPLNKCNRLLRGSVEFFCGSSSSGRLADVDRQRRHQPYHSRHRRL
#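 Z-FR-AMC hydrolysis (2 uM substrate) by cruzain (1.5 nM) monitored kinetically at ex 360/em 450 nm after 15 min room-temperature compound exposure; 0.01% Triton X-100, pH 5.5, 5 mM DTT.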
# NS1 function inh: inhibitors of influenza NS1 protein function; S. cerevisiae slowed by influenza A NS1, growth recovery by OD600; Potency, µM (titrated, usually from 46.1 µM), without a hit: top-dose activity, positive = more growth; AID 2326; hit rate 0.4% among 270,000; also: actives are rising curves; nearly all actives have a fitted effect of over 50% in size
#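 OD600 was taken as the measure of yeast growth restored by compound in an NS1-expressing S. cerevisiae strain. Cells had been washed out of glucose medium and diluted 1:100 into galactose -URA medium, pH 6.0.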
# RE007 growth inh: less growth of the S. pombe RE007 Vpr strain | hit rate 0.21% among 360,000 | AID 651644 | Potency, µM (series often up to 92.2 µM), without a hit: at the highest dose activity change, negative = less growth | S. pombe RE007 Vpr strain, BacTiter-Glo ATP luminescence, 24 h; control for the full effect not named in the record; active = well fitted falling curve with a large enough effect; inconclusive = small, poorly fitted or top-dose-only effect; inactive = no such curve, though single readings can be large or run the other way;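 also: % is scaled to controls: 0 for no effect and ±100 for the full control effect; nearly all actives have a fitted effect of over 50% in size; the assay follows cell death caused by Vpr and the record does not say whether a fall means rescue or toxicity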
#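 Fission yeast strain RE007, carrying one chromosomally integrated HIV-1 vpr copy, was seeded at OD 0.01 in PMG+AL medium with 23 nL pinned compound. After 24 h at 30 °C and 99% humidity, viability was read by BacTiter-Glo luminescence.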
# Cruzain inh noDet: blocks cruzain activity in detergent-free assay; Potency, µM, for the others: max response, negative = inhibition, most hits filed as inhibitors; hit rate 2.3% among 200,000; P25779; AID 1476; purified cruzain, Z-FR-AMC fluorescence, no detergent; active = well fitted curve in the direction sought with a large enough effect; inconclusive = small, poorly fitted or top-dose-only effect, or another doubt; inactive = no such curve, though single readings can be large; an effect the other way counts as inactive or inconclusive;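 also: plate controls were enzyme without inhibitor for no effect and buffer without enzyme for full effect; nearly all actives have a fitted effect of over 40% in size; top concentration of the series not given in the record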
#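 Detergent-free condition (0.00005% Triton X-100) in acetate buffer pH 5.5 with DTT. 1.5 nM enzyme and compound were pre-mixed 15 min, then 2 uM Z-FR-AMC substrate added; reaction progress from fluorescence change between first and third reads (60 s).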
# StopGo reporter: lowers the luciferase signal of an FMDV 2A StopGo reporter; human cells with a luciferase reporter of 2A StopGo recoding; control for the full effect not named in the record; Potency, µM (titrated, usually from 57.9 µM), for the others: at the highest dose signal change, negative = less light; hit rate 1.2% among 410,000; AID 1159524; active = well fitted falling curve with a large enough effect; inconclusive = small, poorly fitted or top-dose-only effect; inactive = no such curve, though single readings can be large or run the other way; tested in HEK293T cells; also: % is scaled to controls: 0 for no effect and ±100 for the full control effect; nearly all actives have a fitted effect of over 45% in size; luciferase light after 4 h
# Starred values were filed as active, the others as inactive; ? = inconclusive; · = no result given; & = joins results of further samples; [ ] = dose if it differs, or a comment. Unless noted, calls follow the shape of the dose curve; as a rule, active means well fitted rising curve with a large enough effect; inconclusive means small, poorly fitted or top-dose-only effect; inactive means no such curve, though single readings can be large or run the other way. Potency is read from the fitted curve at half-maximal effect.
SMILES,Lassa entry inh,SARS PLP yeast,Marburg entry inh,Cruzain Triton,NS1 function inh,RE007 growth inh,Cruzain inh noDet,StopGo reporter
CC(C)C(O)(c1ccccc1)C(CN1CCOCC1)c1ccccc1 (configuration not stated),·,9%,·,·,3%,-7%,·,-22%
COCCCNC(=O)C1CCN(c2cc(C)nc3c(-c4ccc(Cl)cc4)c(C)nn23)CC1,1%[46.1 µM],·,2%[46.1 µM],0.3%,·,·,9%,-9%
C/C(=N/NC(=O)CNC(=O)C1COc2ccccc2O1)c1ccc2c(c1)OCCO2 (configuration not stated),-2%,-5%,1%[46.1 µM],·,·,8%,·,0%
CCc1c(C)nc2ncnn2c1N1CCCC(C(=O)NCCc2ccc(OC)cc2)C1 (configuration not stated),-20%,17%,-19%,5.2%,-2%,5%,2%,?
COC(=O)COc1ccc(-c2nccc(-c3ccccn3)n2)cc1,?,0%,-29%[46.1 µM],·,-4%,-10%,·,?
O=C(CSc1nccc(=O)[nH]1)c1cc2ccccc2o1,·,24%,·,·,6%,-12%,·,26%
CN(Cc1nc(Cc2ccccc2F)no1)CC1(N2CCOCC2)CCCCC1,3%[46.1 µM],1%,?,·,12%,5%,·,-26%
Cc1ccc(C(C)C)c(OCC(=O)Nc2cccc(S(=O)(=O)NC3=NCCCCC3)c2)c1,?,5%,?,·,8%,14%,·,-27%
Cc1nn(Cc2ccc(Cl)cc2Cl)c(Cl)c1/C=C/C(=O)OCC(=O)NCC(F)(F)F,-25%,2%,-28%,4.8%,10%,-8%,0%,0%
Cc1noc(C)c1CSCC(=O)Nc1nc2ccc(Oc3ccccc3)cc2s1,0%,-16%,1%,-3.3%,8%,15%,-12%,-5%
Cc1n[nH]c(C)c1S(=O)(=O)N1CCCC(C(=O)NCc2cccs2)C1 (configuration not stated),-5%,1%,3%[46.1 µM],-0.4%,0%,5%,1%,23%
CCN(CC)S(=O)(=O)c1ccc(OC(C)C)c(N)c1,·,2%,·,·,-4%,-5%,·,24%
O=C(COc1ccc(Cl)cc1Cl)N1CCN(C/C=C/c2ccccc2)CC1,7%,-11%,14%,-4.8%,-56%,-19%,12%,-12%
NC1=C(Cl)C(=O)c2ccccc2C1=O,-11%,·,?,·,·,25µM*,·,?
COc1cccc(C(=O)Nc2ccc(NC(=O)c3ccco3)nc2)c1,-8%,13%,?,-5.0%,-56%,10%,-2%,48%[activator]
COC(=O)c1ccc(OC)c(Cn2c(=O)n(Cc3ccccc3)c(=O)c3c2c2cc(OC)ccc2n3C)c1,-3%[46.1 µM],·,-25%[46.1 µM],-1.6%,·,·,3%,-17%
Cc1ccc2c(c1)C(c1ccccc1)N(C(=O)CC(C)C)CC(=O)N2 (configuration not stated),-26%[46.1 µM],3%,5%[46.1 µM],·,-2%,8%,·,-17%
CCN(CCCNC(=O)C1CCN(S(=O)(=O)CC)CC1)c1ccccc1,15%,-5%,-8%,5.9%,-1%,12%,3%,·
CCC1CN(C(=O)NCc2ccc(C)cc2)c2cc(C)ccc2O1 (configuration not stated),?,0%,·,-6.6%,-31%,-11%,?,-19%&-16%
O=C(COC(=O)CCc1ccc(S(=O)(=O)N2CCOCC2)cc1)NC1CCCC1,0%,12%,?,1.4%,13%,6%,6%,-15%
Cc1cc(C)cc(NC(=O)CN(c2ccc(F)cc2)S(C)(=O)=O)c1,7%,0%,10%[46.1 µM],·,-5%,10%,·,-15%
Cc1cc(/C=C2/C(=O)NC(=O)N(c3ccc(Br)cc3)C2=O)c(C)n1C,7%,0%,-3%,·,5%,-5%,·,-2%
Cc1c(NC(=O)Cn2cc([N+](=O)[O-])cn2)c(=O)n(-c2ccccc2)n1C,15%,-3%,-8%[46.1 µM],·,·,-2%,·,-7%
CC1CCN(CCCNC(=O)c2cc3c(=O)n(C)c4ccccc4c3n2C)CC1,·,0%,·,-0.9%,-1%,-18%,6%,-9%
Cc1nnc(Nc2ccc(C(=O)O)cc2)[nH]c1=O,2%[46.1 µM],3%,?,·,11%,25%,·,4%

# The list goes on:
SMILES,Lassa entry inh,SARS PLP yeast,Marburg entry inh,Cruzain Triton,NS1 function inh,RE007 growth inh,Cruzain inh noDet,StopGo reporter
CCS(=O)(=O)N1CCC(n2c(C)nc3cccnc32)CC1,-1%[46.1 µM],·,·,2.0%,·,·,11%,-3%
Cc1ccc(S(=O)(=O)N2CCC(NC(=O)c3cccc(F)c3)CC2)cc1,-5%,-1%,1%,·,11%,3%,·,-8%
CN(C)/C=N/S(=O)(=O)c1ccc(Cl)cc1,·,2%,·,·,0%,8%,·,9%
O=C(NCCN1CCN(S(=O)(=O)c2ccccc2)CC1)C(=O)Nc1ccc(F)cc1,-12%[46.1 µM],3%,7%[46.1 µM],·,-1%,-14%,·,-15%
O=C(c1ccccc1)N1CCC2(CC1)NCCc1[nH]cnc12,·,3%,·,·,2%,0%,·,-3%
COc1ccc(N2CCN(C(=O)CCc3ccccc3OC)CC2)cc1,·,0%,·,·,-8%,0%,·,-7%
O=C(N/N=C/c1ccc(OC(=O)c2cccs2)cc1)c1ccc(F)cc1,6%,4%,9%,-4.6%,0%,14%,-28%,49%[activator]
CC(=O)N1CCOc2ccc(S(=O)(=O)NCCc3ccccc3)cc21,?,1%,-1%[46.1 µM],·,0%,-10%,·,62%[activator]
O=C(CSc1nnc(Cc2ccccc2)o1)N1CCc2ccccc21,2%,4%,12%,-2.8%,-2%,-1%,8%,11%
O=C(Nc1nc2ccccc2s1)C1CC(=O)N(c2ccc(F)cc2)C1 (configuration not stated),?,·,17%[46.1 µM],-7.2%,-16%,-7%,-2%,-23%
O=C(NC1C2CC3CC(C2)CC1C3)c1ccc2c(c1)OCO2 (configuration not stated),6%,-6%,-11%,·,·,2%,·,23%
O=C(CSc1nnc(-c2ccccn2)n1Cc1ccco1)c1ccc(Cl)cc1,2%,-1%,0%,-8.2%,-3%,4%,1%,-17%
C=CCSc1nc2[nH]ncc2c(=O)[nH]1,-2%,1%,15%,·,·,5%,·,-15%
O=C(COc1ccc(Cl)cc1Cl)N1CCN(C(=O)c2ccco2)CC1,-15%[46.1 µM],1%,-10%[46.1 µM],·,?,4%,·,-11%
CCOC(=O)c1ccc(NC(=O)CSCc2ccco2)cc1,28%[14.3 µM],-17%,-8%,-9.7%,-32%,0%,-25%,-17%
N#Cc1c(-c2ccccc2)c(-c2ccccc2)nn(CC(=O)NNC(=O)Nc2ccc(Cl)c(Cl)c2)c1=O,-28%,-3%,?,-3.0%,?,-5%,?,?
CCCCCOc1ccccc1CN1C(=O)C(=O)c2cc(C)ccc21,-19%[46.1 µM],·,-26%[46.1 µM],-0.7%,·,·,0%,0%
O=C(NCc1cn(-c2ccccc2)nc1-c1ccccc1)c1cc([N+](=O)[O-])cc([N+](=O)[O-])c1,22%,-14%,-2%[46.1 µM],-0.2%,6%,-4%,?,?
O=C(O)CCC(=O)N1CCN(c2ccc(C(=O)c3ccc(F)cc3)cc2)CC1,5%,-2%,25%,-9.2%,-9%,-16%,-21%,-14%
O=C(COc1ccc(F)cc1Cl)Nc1ccc(N2CCOCC2)cc1N1CCOCC1,-23%,-5%,?,·,·,3%,·,-10%
COc1ccc(OC)c(S(=O)(=O)NCC2CCCO2)c1 (configuration not stated),19%,0%,3%,1.2%,11%,15%,-4%,44%[activator]
Cn1cnnc1SCC(=O)NC1CCCN(Cc2ccc(Cl)cc2)C1 (configuration not stated),7%,3%,?,·,-1%,2%,·,-14%
CCCc1cc(=O)[nH]c(SCC(=O)Nc2ccc([N+](=O)[O-])cc2C#N)n1,·,0%,·,·,3%,-4%,·,4%
COc1cccc(-n2c(SCC(=O)Nc3ccc4c(c3)OCO4)nc3c([nH]c4ccccc43)c2=O)c1,-29%[46.1 µM],·,·,-4.2%,·,·,16µM*,-23%
Cc1nn2c(N)c(C#N)cnc2c1-c1ccc(Cl)cc1,-1%,-7%,4%,5.9%,-8%,-1%,25µM*,1%

# The list goes on.
SMILES,Lassa entry inh,SARS PLP yeast,Marburg entry inh,Cruzain Triton,NS1 function inh,RE007 growth inh,Cruzain inh noDet,StopGo reporter
CCN(CC)S(=O)(=O)c1cccc(-c2nnc(SCC(=O)c3ccc(Cl)s3)n2C)c1,?,-2%,1%,-9.3%,-3%,5%,-5%,-18%
COC(=O)C1C(O)=C(C=NCc2ccccc2)C(=O)CC1(C)C (configuration not stated),4%,0%,1%,-5.6%,-12%,-2%,-5%,6%
CC(C)Oc1ccc(CNS(=O)(=O)c2cnc(N)nc2)cc1,-3%[46.1 µM],·,·,3.8%,·,·,19%,14%
O=C(/C=C/c1ccc(Cl)cc1)N1CCN(c2c(Cl)cccc2[N+](=O)[O-])CC1,?,-22%,-3%,-4.9%,28%,8%,?,?
CCCC(C)C(=O)Nc1cc([N+](=O)[O-])ccc1Cl (configuration not stated),4%[46.1 µM],3%,5%[46.1 µM],·,·,-5%,·,0%
CCOC(=O)c1c(N=CN(C)C)c(C#N)n2c1CCC2,0%,-4%,2%,1.3%,?,1%,0%,-4%
CC1Cc2ccccc2N1C(=S)NC1CCCC1 (configuration not stated),-13%[46.1 µM],-1%,14%[46.1 µM],·,-7%,4%,·,-7%
CCNc1c(NS(=O)(=O)c2ccc(C3CCCCC3)cc2)c(=O)oc2ccccc12,-13%,1%,-8%[46.1 µM],·,-1%,12%,·,-28%
CCC1CCCCN1C(=O)CSc1nc2ncccc2[nH]1 (configuration not stated),·,9%,·,·,-6%,6%,·,1%
CSc1nncc(/C(C)=N\Nc2cccc(C)c2)n1,9%,4%,9%,2.3%,-12%,9%,13µM*,-18%
CCP(=O)(CC)c1cccc(N)c1,8%,4%,0%,0.1%,2%,24%,-3%,-15%
CCOc1cccc2sc(NC(=O)c3ccc(S(=O)(=O)N4CCCCC4C)cc3)nc12 (configuration not stated),?,·,·,-1.5%,·,·,0%,?
COc1ccc(-c2nc(N3CCCCCC3)sc2C(=O)c2ccccc2)cc1,?,6%,?,-1.6%,5%,4%,-3%,?
Nc1cnn(Cc2ccc(F)cc2)c1,·,-1%,·,·,2%,18%,·,-18%
